# HSV augment: HSV replication enhancement; maximum fold increase; AID 1956; hit rate 0.005% among 220,000; HSV replication augmentation in cells, fold increase;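 active means peak rise of 1.5-fold or more in the series; inconclusive means self-fluorescent or not available for retest; tested in PC3 cells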;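 further: first round at 10 µM; read as green reporter fluorescence; hits show the peak of a series up to 25 µM; 1 = signal of infected wells without compound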
# RGS16-Gao HTS: modulates binding between human RGS16 and Galphao; bead-based flow cytometry RGS16-Galphao binding, fluorescence; actives lie on both sides; hit rate 0.38% among 220,000; binding response (% of control), % at 10 µM;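 active means below 25% or above 175%, edge rows of some plates excepted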;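 further: Galphao activated by GDP with aluminum fluoride before binding; 100% = wells without compound and 0% = beads without RGS; some results beyond the cut were filed as inactive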
# Target sequence (O15492 whole entry, looked up): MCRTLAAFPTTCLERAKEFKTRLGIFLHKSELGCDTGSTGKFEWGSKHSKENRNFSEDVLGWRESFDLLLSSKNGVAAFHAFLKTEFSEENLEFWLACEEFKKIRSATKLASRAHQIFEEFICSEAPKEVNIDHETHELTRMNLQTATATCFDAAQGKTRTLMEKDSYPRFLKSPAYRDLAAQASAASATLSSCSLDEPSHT
# Target sequence (P09471 whole entry, looked up): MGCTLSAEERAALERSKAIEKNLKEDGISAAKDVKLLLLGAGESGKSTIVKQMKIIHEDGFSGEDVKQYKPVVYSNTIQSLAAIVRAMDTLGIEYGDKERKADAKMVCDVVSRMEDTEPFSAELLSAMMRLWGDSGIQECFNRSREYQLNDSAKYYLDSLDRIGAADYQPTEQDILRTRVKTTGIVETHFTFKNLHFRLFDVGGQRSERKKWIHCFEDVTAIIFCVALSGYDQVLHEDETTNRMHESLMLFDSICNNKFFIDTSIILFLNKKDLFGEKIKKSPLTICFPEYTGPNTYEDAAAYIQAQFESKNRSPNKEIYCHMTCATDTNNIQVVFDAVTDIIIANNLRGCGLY
# PKD1 kinase inh: blocks activity of human protein kinase D1 | Q15139 | PKD1 kinase fluorescence polarization assay | inhibition, %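 (about 10 µM by stock and volumes)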 | hit rate 0.056% among 200,000 | AID 797;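 active means inhibition of 50% or more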;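 further: controls were vehicle for no effect and a reference inhibitor for full effect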
# GALR2 ag: agonists of human galanin receptor 2 (GALR2) | O43603 | GALR2-expressing cells, agonist activation read-out | activation, %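 (tested at 5 µM)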 | hit rate 0.48% among 140,000 | AID 803;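 active means above mean plus 3 SD of all compounds, about 5% in these data, not always enough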;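 further: 0% = vehicle buffer wells and 100% = reference agonist at full effect; tested in CHO reporter cells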
# Target sequence (O43603 whole entry, looked up): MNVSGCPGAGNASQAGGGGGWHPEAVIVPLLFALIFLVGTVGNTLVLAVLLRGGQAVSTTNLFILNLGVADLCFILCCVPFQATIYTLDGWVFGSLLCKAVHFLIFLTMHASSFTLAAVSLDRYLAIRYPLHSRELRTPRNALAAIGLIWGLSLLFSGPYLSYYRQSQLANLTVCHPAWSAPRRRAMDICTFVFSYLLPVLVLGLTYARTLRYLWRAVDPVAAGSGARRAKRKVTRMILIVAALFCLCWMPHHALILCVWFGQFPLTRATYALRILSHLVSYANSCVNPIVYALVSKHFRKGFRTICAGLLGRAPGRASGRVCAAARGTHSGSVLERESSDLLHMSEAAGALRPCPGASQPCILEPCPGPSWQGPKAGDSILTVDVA
# INS promoter inh: TRM-6 insulin promoter activity inhibition. TRM-6 cells (human fetal islet line), insulin promoter-eGFP reporter, imaging; reporter expression induced with tamoxifen. inhibition, % at 2 µM. hit rate 0.9% among 130,000;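 active means inhibition above the mean plus 3 SD, with well images judged a real hit on visual review, cut at about 60% in these data, passing the limit was not always enough; inconclusive means inhibition over the cutoff but images rejected on review; inactive means inhibition not above the cutoff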
# INS promoter inh cell count: recorded beside INS promoter inh, whose call it bears; normalized cell count, %; measured here: cell count, toxicity; reference of the scale not given here;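 cells exposed to compound for 48 h; stained nuclei by imaging scaled within each plate; lower means fewer cells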
# HSV augment primary fold: second read-out of HSV augment, no call of its own (marks repeat the call); fold increase; compound at 10 µM; measured here: primary screen fold increase 10 uM; tested in PC3 cells;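 GFP signal in the first replicate; 1 = infected wells without compound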
# Active calls of the source: *; i = inactive; ? = inconclusive; . = not tested or not shown.
structure	HSV augment	HSV augment primary fold	RGS16-Gao HTS	PKD1 kinase inh	GALR2 ag	INS promoter inh	INS promoter inh cell count
COc1cc(-c2nnc(SCC(=O)NC3CCS(=O)(=O)C3)o2)cc(OC)c1OC (stereo unspecified)	i	1.2	100	-8	.	-19	124
O=Cc1ccccc1OCCOc1ccc([N+](=O)[O-])cc1	i	0.86	100	-3	.	57	116
Cc1nc(C(F)(F)F)ccc1C(=O)Nc1ccccc1F	i	0.84	78	.	.	.	.
CC1=NN(C(N)=S)C(=O)C1N=Nc1c(C)cc(C)cc1C (stereo unspecified)	i	0.67	101	-3	-3.8	30	95
CCc1nnc(NC(=O)CSc2nccn2-c2cccc(C)c2)s1	i	0.65	111	-11	-1.8	.	.
Fc1cc(F)cc(NC(=S)N2CCN(c3ncccn3)CC2)c1	i	0.99	103	-4	.	18	69
CNC(=O)CN(C1CCCCC1)S(=O)(=O)c1ccc(F)cc1	i	0.97	104	-10	-0.2	-500	43
O=C(CCNC(=O)c1ccccc1Cl)Nc1nc2ccccc2s1	i	1	101	0	.	-21	112
COc1c(Cl)cc(Cl)cc1C(=O)n1nc(C)cc1C	i	1	134	-7	-0.8	-219	101
CCOc1cc(CNn2nnnc2N)ccc1OCC(=O)NC(C)(C)C	i	0.88	107	-6	-1.6	33	130
O=C(NCc1ccccc1Cl)c1ccccc1CCc1ccccc1	i	1.1	102	2	-0.7	0	118
Cc1cc(C)nc(SCc2nnc(SCc3ccccc3Cl)o2)n1	i	1	99	1	0.8	-36	65
CCCCOP(=O)(c1ccc(N(C)C)cc1)C(O)c1ccccc1F (stereo unspecified)	i	1.1	104	-6	-0.1	36	132
COc1ccccc1N1CCN(C(=O)c2ccc(NS(=O)(=O)c3ccc(C)cc3)cc2)CC1	i	0.88	100	-5	.	-86	111
O=C(CSc1nc2ccccc2[nH]1)Nc1cc(C(F)(F)F)ccc1N1CCOCC1	i	0.94	109	-1	-0.8	-286	55
Cc1cc(C(=O)OCC(=O)N2c3ccccc3NC(=O)C2(C)C)c(C)n1-c1ccccc1	i	0.86	100	2	-0.3	-29	62
O=C(c1ccccc1)c1sc(N2CCOCC2)nc1-c1ccccc1	i	0.97	110	-4	.	-36	38
COC(=O)c1c(O)cc(C(C)(C)C)n(-c2ccc(F)cc2)c1=O	i	0.99	40	-10	-0.7	22	81
CCOC(=O)C1CCCN(CCC(=O)Nc2cc(C)ccc2C)C1 (stereo unspecified)	i	0.99	109	-2	.	.	.
Cc1cccc(C)c1NC(=O)COc1ccc2c(C)c(Cc3ccccc3)c(=O)oc2c1C	i	1	100	-4	-0.1	0	75
CNC(=S)NNC(=O)c1cccs1	i	1	107	.	.	.	.
CCCN1C(=O)c2cc(C(=O)NCc3cccs3)ccc2C1O (stereo unspecified)	i	0.86	90	-9	-1.6	.	.
Cc1csc2c(N3CCN(C(=S)Nc4ccc(F)cc4F)CC3)ncnc12	i	1	93	.	.	.	.
CCN(Cc1ccncc1)Cc1nc(-c2ccc(C(=O)OC)cc2)no1	i	1.1	103	-6	.	.	.
CC(CCc1ccco1)NC(=O)Cn1ncc2c(=O)oc3ccccc3c21 (stereo unspecified)	i	0.94	107	-5	-0.3	.	.
O=C1CC(N(CCc2ccccc2)C(=S)Nc2ccccc2)C(=O)N1c1ccc(F)cc1 (stereo unspecified)	i	0.96	101	.	.	.	.
CC(C)=C1C2CC2C2C(C(=O)O)C12 (stereo unspecified)	i	0.93	103	-5	-2.7	.	.
Cc1nn(Cc2ccc([N+](=O)[O-])cc2)c(=O)n1-c1cccc(Cl)c1	i	0.9	95	0	.	.	.
COc1ccccc1C(C)NC(=O)c1ccc(C)o1 (stereo unspecified)	i	0.88	101	-5	-2.1	17	68
N/N=C(\Cc1cscn1)c1ccc(O)cc1O	?	.	102	.	.	.	.
O=P(COCCOCCOCP(=O)(c1ccccc1)c1ccccc1)(c1ccccc1)c1ccccc1	i	0.94	103	-10	.	.	.
O=C(Nc1cccnc1)c1cnn2cccnc12	i	0.86	102	3	-1.9	-71	84
Cc1cn(CC2COC(C)(C)O2)c(=O)[nH]c1=O (stereo unspecified)	i	0.91	103	0	-0.9	21	77
Cc1ccc(S(=O)(=O)N/N=C/c2c[nH]c3ccccc23)cc1	i	1	103	1	.	.	.
Cc1ccc(O)c(N=Cc2cccs2)c1	i	0.84	96	7	0.3	0	102
CC(/C=N/NC(=O)C(O)c1ccccc1)=C\c1ccccc1 (stereo unspecified)	i	0.83	103	-4	-2.2	0	68
COCCNC(=S)N1CCC(NC(=O)C23CC4CC(CC(C4)C2)C3)CC1	i	1	99	4	.	.	.
CCNC(=O)COC(=O)CNC(=O)c1cc(Cl)cc([N+](=O)[O-])c1	i	0.97	105	-5	-0.9	5	131
COc1ccc(-c2cc(C(=O)Nc3ccc(S(=O)(=O)Nc4onc(C)c4C)cc3)c3ccccc3n2)cc1	i	0.93	99	.	.	.	.
CC(C)(C)c1csc(CS(=O)(=O)c2ccccn2)n1	i	1.2	99	.	.	.	.
Cc1ccc(S(=O)(=O)N2CCC(C(=O)NCCN3CCCCCC3)CC2)cc1	i	1.2	104	4	-1.9	-15	156
O=C(O)CCCCCN1C(=O)/C(=C/c2ccncc2)SC1=S	i	0.98	91	-9	-0.4	60	47
COc1cc(NC(=O)CSCc2cnn(-c3ccccc3)c2-n2cccc2)cc(OC)c1	i	1	95	1	-3.5	0	107
O=c1[nH]nc(Cc2ccc(Cl)cc2Cl)c2ccccc12	i	0.91	89	4	-1.9	-54	104
N#CCCN(CCC#N)C(=O)c1ccc(Cl)cc1	i	1	102	1	1.8	18	135
C[C@@H]1CN(Cc2nc(-c3cccs3)no2)C[C@H](C)O1	i	1.1	104	-6	.	.	.
Fc1ccc(N2CCN(c3nc(-c4ccco4)cc(C(F)(F)F)n3)CC2)cc1	i	0.85	103	-13	-1.2	0	72
CCOC(=O)c1sc(N)c(C#N)c1CSc1nc2ccc(OCC)cc2[nH]1	i	0.93	98	-10	-1.4	.	.
O=C(CSc1nnc(-c2ccccc2Br)o1)Nc1cccc2ccccc12	i	1.1	101	-2	0.1	27	63
CCCn1c(N)c(C(=O)CSc2nc3ccccc3c(=O)n2-c2ccc(OC)cc2)c(=O)[nH]c1=O	i	1.1	123	-8	.	-92	67
CCOc1cc(CNc2ccc3c(c2)OCCO3)cc(Br)c1OC	i	0.73	102	5	-0.1	-83	10
COc1ccccc1NC(=O)Nc1ccc(C(=O)N2CCCCC2)cc1	i	0.97	112	.	.	.	.
CCc1nnc(N/N=C/c2ccccc2F)n1N	i	0.91	97	-7	.	-6	94
CCOc1ccc(N(CC(=O)Nc2cccc(C)c2C)S(=O)(=O)c2c(C)[nH]c(=O)[nH]c2=O)cc1	i	0.97	98	.	.	.	.
CC(C)CCSc1nc2ccccc2[nH]1	i	0.98	101	-1	.	.	.
CC(C)(C)c1nc(SCC(=O)c2ccccc2)c2ccccc2n1	i	0.91	98	4	.	.	.
Cc1ccc(-c2cnc(NC(=O)CCC(=O)N(C)Cc3ccccc3)n2C)cc1	i	0.81	101	-15	-3.1	-3	158
CCn1c(SCC(=O)Nc2ccc(S(N)(=O)=O)cc2)nnc1-c1ccccc1OC	i	1	96	-5	0.2	58	110
COC(=O)COc1cccc(NC(=O)c2ccc(C)cc2)c1	i	0.84	102	4	-0.7	-18	58
Cc1cc(C)n(-c2nncc(-c3ccccc3)n2)n1	i	0.9	96	11	-0.8	-29	125

# Following part.
structure	HSV augment	HSV augment primary fold	RGS16-Gao HTS	PKD1 kinase inh	GALR2 ag	INS promoter inh	INS promoter inh cell count
CCOc1ccc(NC(=S)Nc2ccc(C)c([N+](=O)[O-])c2)cc1	i	0.98	99	0	-2.2	-7	189
O=S(=O)(c1cccc2cccnc12)n1cnc2ccccc21	i	1.1	100	-7	-1.8	6	101
Cc1ccccc1-n1nc(C)c(N=O)c1N	i	0.97	102	2	.	50	143
COc1ccc(CNC(=O)CCCn2nc([N+](=O)[O-])cc2C)cc1	i	0.96	117	-3	.	42	106
O=C(CN1CCCN(S(=O)(=O)c2ccc(F)cc2)CC1)Nc1ccccc1Br	i	1	102	-8	-0.5	14	97
CCOC(=O)C1(CCOc2ccccc2)CCN(Cc2cccn2-c2cccnc2)CC1	i	0.95	98	-1	.	.	.
O=c1[nH]c(/C(Cl)=C/c2cc(Cl)ccc2O)nc2cc(Cl)ccc12	i	0.79	103	2	-2.1	5	135
O=C(/C=C/c1cccc([N+](=O)[O-])c1)NCCSCc1ccco1	i	1.1	82	-3	-0.5	-25	108
CCN(CC)CCn1cnc2c([nH]c3cccc(OC)c32)c1=O	i	0.92	103	-8	-2.0	10	76
Cc1ccc(NS(=O)(=O)c2ccc(CCC(=O)N3CCOCC3)cc2)cc1	i	0.95	134	-2	-0.1	-188	93
O=c1cc(N2CCCCC2)nc2n1CCCS2	i	0.87	100	-11	-1.5	27	162
CN1CCc2c(sc3nc(SCC(=O)N4CCOCC4)nc(N)c23)C1	i	0.88	98	3	-1.5	6	97
CN(C)C(=O)CSc1nnc(-c2cccnc2)n1-c1ccccc1	i	0.98	105	6	-3.4	.	.
O=C1C(Cc2ccccc2)NC(=S)N1c1ccccc1 (stereo unspecified)	i	0.93	97	8	-1.9	-12	80
Cc1nonc1NC(=O)CSc1nc2c(C)cccc2cc1C#N	?	.	112	-6	.	i	95
CCc1c(C)c2ccc(OCC(=O)OC)cc2oc1=O	i	0.94	92	-10	-0.6	0	143
CCCC/C(C)=N/NC(=O)C(=O)NCCc1ccccc1	i	0.96	104	-4	-2.3	.	.
COc1cc(/C=C2/SC(=S)NC2=O)ccc1OS(=O)(=O)c1ccc(C)cc1	i	0.87	72	-9	-0.3	-18	119
CCOC(=O)c1nn(-c2ccc(Cl)cc2Cl)c(=N)c(C#N)c1C	?	.	96	.	.	.	.
COc1ccc(CCNC(=O)Nc2ccccc2[N+](=O)[O-])cc1	i	0.88	101	-4	.	15	75
CC(=O)Nc1nn(C)c2nc3cc(C)ccc3cc12	i	0.88	100	0	1.2	.	.
CC1(C)CC(C(=O)Nc2nccs2)CCO1 (stereo unspecified)	i	1	115	-12	-2.8	31	100
CC(=O)CSc1nnc2c3ccccc3nc(C(C)(C)C)n12	i	0.86	97	2	.	50	128
Cc1ccc(NC(=O)COC(=O)/C=C/c2c(C)nn(-c3ccc(F)cc3)c2Cl)cc1F	i	0.87	105	-8	-1.2	.	.
O=C(CSc1n[nH]c(-c2cccs2)n1)N1CCN(S(=O)(=O)c2ccccc2)CC1	i	0.81	109	-3	-1.4	3	128
Cn1nc(NC(=O)CC(C)(C)CC(=O)O)c2ccccc21	i	1	97	.	.	.	.
O=S(=O)(Oc1ccccc1N1CCCCC1)c1ccccc1	i	0.97	100	.	.	.	.
CCN1C(=O)/C(=C2/C=CC=CN2C)SC1=S	i	0.99	111	-9	0.6	.	.
C/C(=N\NC(=O)c1nn(C)c(C)c1Br)c1ccc(NC(=O)c2ccoc2C)cc1	i	0.79	103	8	-1.2	0	98
CCOCCCNC(=O)C1CCN(S(=O)(=O)N2CC(C)CC(C)C2)CC1 (stereo unspecified)	i	1.1	94	-1	-0.6	57	112

# In the list so far, these have a COOH group:
structure	HSV augment	HSV augment primary fold	RGS16-Gao HTS	PKD1 kinase inh	GALR2 ag	INS promoter inh	INS promoter inh cell count
CC(C)=C1C2CC2C2C(C(=O)O)C12 (stereo unspecified)	i	0.93	103	-5	-2.7	.	.
O=C(O)CCCCCN1C(=O)/C(=C/c2ccncc2)SC1=S	i	0.98	91	-9	-0.4	60	47
Cn1nc(NC(=O)CC(C)(C)CC(=O)O)c2ccccc21	i	1	97	.	.	.	.

# Additional results follow:
structure	HSV augment	HSV augment primary fold	RGS16-Gao HTS	PKD1 kinase inh	GALR2 ag	INS promoter inh	INS promoter inh cell count
CC(C)CCNC(=O)c1ccc(CSCc2cccc(F)c2)o1	i	0.84	104	-2	-3.2	47	111
Cc1ccc(S(=O)(=O)N2CCN(S(=O)(=O)N(C)C)CC2)c(C)c1	i	0.95	104	5	-0.9	-11	73
Nn1c(Cc2cccc3ccccc23)nnc1SCc1ccccc1	i	1.1	118	-3	-1.8	0	110
CC(=O)c1ccc(O)c(CSC2=NCCS2)c1	i	1	108	-2	.	14	65
